gsp ag – gsp mutant agonism; AID 624287; gsp mutant cells, cAMP HTRF, 30 min; control for the full effect not named in the record; Potency, µM (series often up to 76.9 µM), for inactives: at the top dose activation (cAMP increase), actives largely listed as activators; 340,000 tested, 0.13% active; active = well fitted activation curve with a large enough effect; inconclusive = small, poorly fitted or top-dose-only effect, or another doubt; inactive = no such curve, though single readings can be large or run the other way; cell line not stated here;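 note: phosphodiesterase inhibitor Ro 20-1724 added with compounds to block cAMP breakdown; potency is the fitted concentration of half-maximal effect; nearly all actives have a fitted effect of over 60% in size; about a fifth of the inactives were tested at one dose only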
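Cells stably selected in G418 were plated at 2000/well, grown 16-24 hr, then given compounds in DMSO with the PDE inhibitor […] (300 uM solution added) for 30 min at 37C; cAMP was read by HTRF.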
ClpP mod – qHTS Assay for Activators of ClpP; ATP-dependent Clp protease proteolytic subunit (Bacillus subtilis (strain 168)), P80244; purified B. subtilis ClpP, FRET peptide cleavage, 20 min; Potency, µM (doses to about 57.5 µM), inactives show at the highest dose activity change, negative = active; 340,000 tested, 1.9% active; AID 651965, 2013; active = well fitted falling curve with a large enough effect; inconclusive = small, poorly fitted or top-dose-only effect; inactive = no such curve, though single readings can be large or run the other way; note: potency is the fitted concentration of half-maximal effect; the source files actives as falling curves though it sought activators and does not explain the sign; nearly all actives have a fitted effect of over 65% in size; many hits overshoot -100%
Target sequence (P80244 whole entry, looked up): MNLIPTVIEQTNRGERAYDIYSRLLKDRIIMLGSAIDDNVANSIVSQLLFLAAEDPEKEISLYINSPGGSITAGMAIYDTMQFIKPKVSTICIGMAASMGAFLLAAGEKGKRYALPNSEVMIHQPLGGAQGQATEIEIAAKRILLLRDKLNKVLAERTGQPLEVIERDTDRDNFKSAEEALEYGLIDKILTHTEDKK
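Purified B. subtilis ClpP, 10 microg/mL final in Tris/HCl pH8 with KCl, BSA, glycerol and Tween-20, cleaved an Abz/nitrotyrosine-quenched decapeptide. Fluorescence (ex 320, em 430) was read at 0 and 20 min at room temperature. Delta was normalized to 5.8 microM ADEP and DMSO/no-enzyme controls.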
Sfp PPTase inh – inhibitors of Bacillus subtilis Sfp phosphopantetheinyl transferase | Q9F4F7 | Biochemical Sfp PPTase activity, qHTS | Potency, µM, inactives show max response, negative = inhibition, most hits filed as inhibitors | 310,000 tested, 3.5% active | AID 1490; active = well fitted inhibition curve with a large enough effect; inconclusive = small, poorly fitted or top-dose-only effect, or another doubt; inactive = no such curve, though single readings can be large or run the other way;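 note: the enzyme is Sfp with the accession as filed and its product quenches rhodamine fluorescence; potency is the fitted concentration of half-maximal effect; 0% = enzyme reaction without inhibitor and -100% = no enzyme wells; top concentration of the series not given in the record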
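Buffer: 50 mM Hepes-Na pH 7.6, 10 mM MgCl2, 0.01% Nonidet P-40, 0.01% BSA. Enzyme 15 nM, pre-exposed to compound 15 min; substrates then added and fluorescence change tracked over 30 min.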
gsp antagonist – gsp mutant antagonism | Potency, µM (top dose mostly 76.9 µM), inactives show at the top dose activity change, negative = inhibition, actives largely listed as inhibitors | AID 624288 | gsp-mutant cells, cAMP HTRF, 30 min; control for the full effect not named in the record | 340,000 tested, 0.4% active; active = falling curve of any shape with a large fitted effect; inconclusive = falling curve, mostly with a smaller effect; inactive = flat or rising curve; cell line not stated here;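 note: intracellular cAMP measured with PDE inhibitor Ro 20-1724 present during compound exposure; potency is the fitted concentration of half-maximal effect; % is set by controls: 0 for no effect and ±100 for the full control effect; nearly all actives have a fitted effect of over 65% in size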
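Cells, 2000/well, grown 16–24 h in DMEM 10% FBS with 0.5 mg/ml G418, then compounds plus […] (300 uM addition stock), 30 min at 37C. cAMP read by HTRF (cAMP-d2 and anti-cAMP antibody-K in lysis buffer) after 30 min RT.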
CtBP-E1A inh – inhibitors of CtBP/E1A interaction | AlphaScreen GST-E1A/His-CtBP binding, 1536-well; stronger effect = lower value; control for the full effect not named in the record | activity change, % (no concentration beside the values) | 340,000 tested, 0.49% active; in the data active means activity change below about -65%; inconclusive means about -30% to -65%; inactive means above about -30%; note: % is set by controls: 0 for no effect and ±100 for the full control effect; compound concentration not given in the record
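Homogeneous bead-based format: GST-tagged E1A captured on glutathione donor beads, His-tagged CtBP on nickel acceptor beads; compounds precede bead addition by 2 h at 37 °C.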
Menin-MLL FL inh – inhibitors of human menin-MLL interaction, wild-type MLL peptide; Fluorescence polarization, fluorescein-MLL peptide displacement from menin; FP activity change, % at 61.4 µM; 290,000 tested, under 10 active; inconclusive = falling polarisation curve, or a change in total fluorescence; inactive = total fluorescence flat and polarisation flat or rising; no compound was filed as active; the % refers to the polarisation; negative = inhibition;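 note: % of control where 0% means no effect; inhibitors lower the polarisation; unlabelled MLL peptide was the positive control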
TRPV1 PAM – enhances activation of the human vanilloid receptor TRPV1; potentiation, % at 8.33 µM; TRPV1-expressing cells, Fluo-8 calcium influx, capsaicin EC20 potentiation; host cell line not named in the record; control for the full effect not named in the record; Q8NER1; 320,000 tested, 0.02% active; active means potentiation above 80%; inconclusive means 30% to 80%; inactive means below 30%; note: 0% is about no effect
Target sequence (Q8NER1 whole entry, looked up): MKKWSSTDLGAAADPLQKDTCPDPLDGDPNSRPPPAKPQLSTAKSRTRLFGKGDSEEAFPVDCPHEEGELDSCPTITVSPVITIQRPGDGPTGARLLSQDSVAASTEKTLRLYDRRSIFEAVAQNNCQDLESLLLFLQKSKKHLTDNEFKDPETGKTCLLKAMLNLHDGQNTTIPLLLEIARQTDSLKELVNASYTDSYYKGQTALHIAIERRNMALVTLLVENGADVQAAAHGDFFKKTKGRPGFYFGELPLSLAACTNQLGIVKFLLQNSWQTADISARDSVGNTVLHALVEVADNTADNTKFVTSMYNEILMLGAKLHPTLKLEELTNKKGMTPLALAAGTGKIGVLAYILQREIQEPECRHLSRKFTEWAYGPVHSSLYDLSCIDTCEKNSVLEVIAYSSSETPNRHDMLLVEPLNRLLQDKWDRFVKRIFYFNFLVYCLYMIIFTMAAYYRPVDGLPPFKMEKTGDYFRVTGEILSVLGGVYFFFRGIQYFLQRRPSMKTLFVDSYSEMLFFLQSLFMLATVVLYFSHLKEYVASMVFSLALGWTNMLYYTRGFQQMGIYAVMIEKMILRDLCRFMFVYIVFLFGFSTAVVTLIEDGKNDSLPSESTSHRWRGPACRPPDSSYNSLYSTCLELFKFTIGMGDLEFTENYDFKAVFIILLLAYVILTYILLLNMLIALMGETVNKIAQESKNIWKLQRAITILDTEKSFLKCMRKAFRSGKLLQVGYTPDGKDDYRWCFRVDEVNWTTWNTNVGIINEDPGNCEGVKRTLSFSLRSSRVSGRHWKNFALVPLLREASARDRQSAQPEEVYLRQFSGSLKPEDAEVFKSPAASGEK
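TRPV1-expressing cells were cultured overnight at 35.5C and loaded with Fluo-8 calcium dye for 40 to 90 min at room temperature. After a 10 s baseline, compound was added and calcium influx was read kinetically for 3 min (ex 480/em 520 nm).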
* = called active by the depositor; u = inconclusive; x = not tested or not shown; & = joins results of further samples; ! = not active in a repeat; [ ] = remark or other dose. This is a subset; the hit share may differ from the screen's.

SMILES	gsp ag	ClpP mod	Sfp PPTase inh	gsp antagonist	CtBP-E1A inh	Menin-MLL FL inh	TRPV1 PAM
CCOP(=O)(OCC)C(NC(=O)c1ccccc1Cl)=C(Cl)Cl	-21%	0.5%	18%	0%	-1	2.5	7
CCC(=O)N1CCN(CCN=Cc2c(O)n(C)c(=O)n(C)c2=O)CC1	-44%	-0.8%	13%	9%	-3	3.9	-4
BrCC(Br)C1CCC(Br)C(Br)C1 (stereo unspecified)	x	1.1%	x	-9%	21	x	-1
c1ccc(-c2[nH]c[n+](CC3CO3)c2-c2ccccc2)cc1 (stereo unspecified)	x	x	u	x	x	0.9	4
COC(=O)C1=C(c2ccc(OC)c(OC)c2)C[C@@H]2CC[C@H]1N2C(=O)NCC1CC1	x	2.5%	x	4%	5	x	-5
CN1CC[C@]23c4c5ccc(O)c4OC2C(O)C=CC3[C@H]1C5 (stereo partly specified)	x	-3.2%	x	4%	-15	x	x
CCCCCn1c(=O)c(C(=O)NCc2ccc(Cl)cc2)c(O)c2ccccc21	-6%	-30%	12%	-2%	1	-1.3	-2
Cc1c(C(=O)N2CCC3(CC2)OCCO3)sc2ncnc(N(C)c3ccccc3)c12	u	-3.1%	1%	2%[15.4 µM]	6	2.8	-20
COC(=O)C1=C(c2ccc(S(C)(=O)=O)cc2)C[C@@H]2CC[C@H]1N2C(=O)NCc1ccc(F)cc1	-9%	2.0%	x	5%	6	x	x
CC(C)C(=O)c1cn(Cc2ccc(C#N)cc2)c2ccccc12	0%	2.6%	-7%	5%	5	-0.8	1
Cc1ccc2c(c1)N(C(=O)CCC(=O)N1CCC3(CC1)OCCO3)CC(C)O2 (stereo unspecified)	-21%	-1.3%	12%	-4%	x	x	-15
COc1ccc(OC)c(/C=N/OC(=O)Nc2ccc(Cl)cc2)c1	-51%[inhibitor]	4.7%	9%	-4%	x	-2.4	3
CCC1(Cc2ccccc2)C(=O)NC(=S)N(C)C1=O (stereo unspecified)	5%	2.7%	x	14%	10	x	x
COC(=O)C1=C(c2ccc(S(C)(=O)=O)cc2)C[C@@H]2CC[C@H]1N2C(=O)N1CCC(C)CC1	5%	1.3%	x	-4%	3	x	x
CCOC(=O)Cn1c(C)[n+](C)c2cc(Cl)c(Cl)cc21	-57%[inhibitor]	-1.5%	16%	2%	x	-1.9	-2
CN1[C@@H]2CC[C@H]1CC(OC(=O)C1C=Nc3ccccc31)C2 (stereo partly specified)	x	-2.6%	5%	-4%	-20	4.3	9
C=CCN1C(=O)c2ccccc2Sc2ccc(C(=O)N3CCC4(CC3)OCCO4)cc21	-1%	1.0%	20%	-23%	0	3.7	-12
CCCN(CCC)C(=O)Cc1c(-c2ccc(Cl)cc2)nc2c(Cl)cc(Cl)cn12	x	-2.6%	x	-8%	1	1.7	-15
COC(=O)C1=C(N)Oc2c(c(=O)oc3ccccc23)[C@]12C(=O)N(C)c1ccccc12	-47%[inhibitor]	2.2%	4%	16%	32	2.1	6
CCN(CC)P(=O)(NC(=O)C(Cl)(Cl)Cl)N(CC)CC.[Cl-].[Cl-].[Cl-].[Nd+3]	20%&-1%	-4.7%&-1.8%	5%	16%&0%	0&3	2.0	0
Cn1cccc1CN1CCN(C(=O)COc2ccccc2)CC1	-8%	-1.1%	-15%	2%	0	0.2	9
CC1=C(C(=O)O)N2C(=O)[C@@H](NC(=O)CCCC(=O)O)[C@H]2SC1	x	1.9%	5µM*	6%	7	-0.7	-7
COc1cccc(-n2c(CNC(=O)OC(C)(C)C)n[nH]c2=S)c1	2%	-1.4%	50µM*	13%	-4	-2.2	-5
Cc1onc(-c2ccccc2)c1C(=O)N1CCC2(CC1)OCCO2	2%	0.5%	13%	-3%	7	0.2	21
NC1=NC(=O)C(c2ccccc2)O1 (stereo unspecified)	x	x	6%	x	x	-1.5	-1

(continued)
SMILES	gsp ag	ClpP mod	Sfp PPTase inh	gsp antagonist	CtBP-E1A inh	Menin-MLL FL inh	TRPV1 PAM
CCOC(=O)C1C(=O)N(C)C2(C)CC1c1ccccc1O2 (stereo unspecified)	-7%	2.6%	36%[activator]	8%	4	-1.0	-3
CCCNC(=O)N1[C@H]2CC[C@@H]1C(C(=O)OC)=C(c1ccc(S(C)(=O)=O)cc1)C2	x	0.3%	x	1%	4	x	x
O=c1oc2ccccc2c(O)c1[C@H]1c2ccc(O)cc2Oc2c1c(=O)oc1ccccc21	21%	2.2%	-4%	5%	3	-1.2	-4
COc1ccc(S(=O)(=O)N(C)C[C@H]2OCCCC[C@H](C)Oc3ccc(N(C)C)cc3C(=O)N([C@H](C)CO)C[C@@H]2C)cc1	0%	-2.6%	x	x	-5	x	x
COc1ccc(NC(=O)N2C[C@@H]3C[C@@H](C2)c2cccc(=O)n2C3)cc1	x	-0.9%	19%	7%	7	-0.8	11
C/C(=C\c1ccc(N(C)C)cc1)[N+](=O)[O-]	-2%	0.2%	-7%	-8%	3	9.8	-2
CC1CC(OC(=O)c2ccccc2)(c2ccccc2)C(C)CN1C (stereo unspecified)	7%[15.4 µM]	x	-29%	22%	-25	2.5	23
CN(C(=O)CNC(=O)OCc1ccccc1)c1ccc(Br)cc1C(=O)c1ccccc1Cl	u	1.1%	10%	25%	-22	-0.1	2
COc1cc(O)c(C(=O)O)c(-c2cc(O)c(O)cc2C)c1	-69%[inhibitor]	-0.1%	2%	0%	0	-3.0	-9
CN1CCc2nc3sc(C(=O)NC4CC4)c(N)c3cc2C1	-31%[inhibitor]	1.9%	32µM*	-26%	x	u	-2
CC(=NCc1cccnc1)c1c(O)n(C2CCCCC2)c(=O)[nH]c1=O	7%	-2.8%	1%	-6%	-15	1.2	22
Cn1c(O)c(C(=Nc2ccccc2)SCc2ccccc2Cl)c(=O)n(C)c1=O	8%[15.4 µM]	-5.4%	40µM*	-4%	2	6.5	-14
COC1=CC=C2[C@H]3Cc4ccc(OC)c5c4[C@@]2(CCN3C)C1O5 (stereo partly specified)	x	0.7%	x	-8%	-3	x	x
C=Cn1ccnc1P(=S)(c1ccccc1)c1nccn1C=C	1%[15.4 µM]	x	12%	-17%	6	3.9	-1
CC(C)(C)C(=O)c1cn(CC(=O)NCc2ccco2)c2ccccc12	-12%	1.7%	-11%	16%	1	-5.6	-6
Cn1c(O)c(C=NC2CC(C)(C)NC(C)(C)C2)c(=O)n(C)c1=O	16%	-3.2%	4%	4%	-8	0.5	-11
C=CCn1c(O)c(C(C)=Nc2cc(OC)ccc2OC)c(=O)[nH]c1=O	8%	4.0%	5%	5%	-5	1.8	23
O=C1CC(NC(=O)C(F)(F)F)=NN1c1ccccc1	-28%	x	2%	1%	0	-3.5	1
Cc1onc(-c2ccccc2Cl)c1C(=O)NCc1ccc2c(c1)cc(C)n2C	31%	-2.1%	1%	-1%	-23	u	-20
CCOP1(=O)C=C(Sc2ccc([N+](=O)[O-])cc2[N+](=O)[O-])C(C)(C)O1 (stereo unspecified)	u	-4.8%	x	12%	12	x	x
CCC1=Nc2cc(C(=O)N3CCC4(CC3)OCCO4)ccc2Sc2ccccc21	-8%	0.3%	1%	-12%	1	2.3	-11
CCOC(=O)c1ccc(NC(=O)N2C[C@@H]3C[C@@H](C2)c2cccc(=O)n2C3)cc1	x	-4.9%	21%	8%	4	2.0	5
COc1ccc(N/N=C/c2c(O)n(-c3cccc(C)c3)c(=O)[nH]c2=O)cc1	1%	4.1%	-27%	-5%	-8	2.4	-6
CC1CCC2C(C)C(=O)OC3OC4(C)CCC1C32OO4 (stereo unspecified)	4%	x	89µM*!	10%	4	2.3&-11	-13
CC1(C)N2CC3([N+](=O)[O-])CN1CC([N+](=O)[O-])(C2)C3	-9%	2.4%	5%	6%	x	0.5	-4

Other compounds
SMILES	gsp ag	ClpP mod	Sfp PPTase inh	gsp antagonist	CtBP-E1A inh	Menin-MLL FL inh	TRPV1 PAM
C=CCN1CC[C@]23c4c5ccc(O)c4O[C@H]2/C(=N/NC(=O)c2ccccc2)CC[C@@]3(O)[C@H]1C5	x	1.6%	1%	-7%	-12	0.6&-1.8	x
Cc1cnc(-n2c(=S)[nH]c3ccccc3c2=O)s1	5%	1.1%	x	0%	x	x	12
C=CCN1C(=O)NC(=O)C(CCc2ccncc2)(CCc2ccncc2)C1=O	3%[15.4 µM]	x	11%	-24%	4	0.0	-4
C[C@H]1CN([C@@H](C)CO)C(=O)c2cc(NC(=O)Nc3cccc4ccccc34)ccc2O[C@@H]1CN(C)Cc1ccc(-c2ccccc2)cc1	x	u	x	-11%	-2	x	x
COc1ccc(CN2CCN(Cc3ccccc3)CC2)c(OC)c1	25%	-4.3%	7%	9%	-24	-2.1	u
COc1ccc(S(=O)(=O)N2CCOCC2)cc1NC(=O)COC(=O)Cc1ccccc1	-52%[inhibitor]	-4.1%	x	-2%	-22	x	x
CCN1CCN(C(=O)Cc2ccccc2OC)CC1	1%	-5.5%	16%	9%	11	1.0	-1
CC(C)C1C(c2ccccc2)N(C)C(c2ccccc2)CC1(O)c1ccccc1 (stereo unspecified)	15%	0.9%	21%	2%	10	69[activator]	-13
Nc1ccc(C(=O)N/N=C2/CN3CCC2CC3)cc1	-19%	-0.9%	-9%	3%	9	-0.2	-12
O=C(c1ccoc1)N1CCCC(N2CCN(c3cccc(C(F)(F)F)c3)CC2)C1 (stereo unspecified)	u	-2.8%	11%	0%	-2	x	27
Cc1ccc2c(C)c3ccc4ccccc4c3c[n+]2c1	u	8.4%	x	50µM*	-11	x	x
COc1ccccc1N1C(=O)NC(=O)/C(=C/c2ccc([N+](=O)[O-])s2)C1=O	1%[15.4 µM]	1.0%	22µM*	u	-26	u	4
CCN(CC)CCN=Cc1c(O)n(Cc2ccccc2)c(=O)[nH]c1=O	27%[15.4 µM]	-0.8%	20%&5%	17%&-1%	-3&10	u	u
CCCNC(=O)N1[C@H]2CC[C@@H]1C(C(=O)OC)=C(c1c(C)noc1C)C2	x	0.8%	x	9%	6	x	21

Screening data: PubChem BioAssay, National Center for Advancing Translational Sciences (NCATS)
